Bioassay records deposited in PubChem by ICCB-Longwood Screening Facility, Harvard Medical School.
AID504770: growth inhibition of E. coli YBA685, primary screen, V. cholerae RctB inhibitors; z-score (no concentration beside the values); 0.27% of 130,000 active; E. coli YBA685 rctB-dependent plasmid, OD600 growth, 3 h; active compounds read low;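 active = z-score under -2 on both plates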;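 also: wells of about 30 µL received 100 nL stock; score is relative to mean and SD of the test wells; the first replicate is given; strong numbers were not always called active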
CapD inh: Bacillus anthracis CapD inhibitors, primary screen, biochemical, fluorescence intensity. 0.23% of 140,000 active. purified CapD enzyme, fluorescence intensity read-out; active compounds read low; some hits fall short of the stated cut. z-score (concentration not given with the values);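 active = z-score under -4 in either of two replicates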;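 also: stock transfer was 100 nL into about 40 µL; score is relative to mean and spread of the plate; one replicate is shown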
Active calls of the source: *; i = inactive; . = no result given; & = joins results of further samples.

SMILES	AID504770	CapD inh
CCN(Cc1ccncc1)C(=O)NCCc1c[nH]c2ccc(C)cc12	.	-0.22
O=C(/C=C1\SCC(=O)N1c1ccccc1)c1ccc(Cl)cc1	-2.1	1.6
O=C(NCCN1CCOCC1)c1ccc(I)cc1	-1	-0.29
CCOC(=O)C1=NN(c2ccc(Br)cc2)C2(S1)c1ccccc1C(c1ccc(C)cc1)=NN2c1ccccc1 (stereo not given)	.	-0.34
CCN(CC)CCSc1nc2ccccc2n1Cc1ccccc1	-1.1	0
CCOc1ccc(/C=C(\C#N)C(N)=C(C#N)C#N)cc1	-2.5	.
COc1ccc(/C=N/C2=NNC(=O)C(CC(=O)O)S2)cc1 (stereo not given)	0.25	-3.2
c1ccc2c(c1)CSC(=NCc1ccncc1)N2	-0.9	-0.43
COc1ccc(OC)c(CCNC(=O)CCc2nc3ncccc3c(=O)n2Cc2ccccc2)c1	0.45	0.17
CC1CCC(C(C)C)C(OCC(O)C[N+]2(C)CCCCC2)C1 (stereo not given)	-0.2	-0.35
O=C(O)CCc1c(C(=O)O)[nH]c2ccccc12	-1	0.22
Cc1[nH]c2c(C)cccc2c1CCN	-0.65	.
Cc1ccc(CSc2nc(C(=O)O)ccc2C#N)cc1	0.1	-0.085
CN(C(=O)c1cc2c(s1)-c1ccccc1S(=O)(=O)C2)c1ccccc1	-0.15	-0.06
Cc1nc(Sc2nnc3sc4ccccc4n23)c2c3c(sc2n1)CCC3	1.7	.
Cc1ccc(-n2nc(C(=O)O)c(C)c(C#N)c2=O)cc1C	1.6	54
c1ccc(-c2nnnn2CCOCCn2nnnc2-c2ccccc2)cc1	1.4	.
COCC(C)N=C1NN=C(c2c[nH]c3ccccc23)CS1 (stereo not given)	-0.25	.
Cc1ccccc1C(=O)Nc1ncc(I)cc1C	.	0.075
COc1ccc(N2CCN(CC(=O)N(C)C)CC2)cc1	-0.2	.
CN(C)S(=O)(=O)c1cccc(C(=O)N2C(=O)c3cccc(N)c3C2=O)c1	0.1	.
CC(=O)N1CCC(Nc2ccc3[nH]c(C(C)(C)C)cc3c2)CC1	.	3.2
COc1cc(-c2nc3ccccn3c2/N=C/c2sccc2C)ccc1O	0.4	0.16
Cc1[nH]c(=O)c(C#N)cc1-c1csc(-c2ccccc2)n1	0.7	0.76
CC(C(=O)OCc1nnc(-c2ccccc2)o1)N1C(=O)c2ccccc2C1=O (stereo not given)	-0.2	.

7 compounds out of the list, arranged by molar mass, lowest first:
SMILES	AID504770	CapD inh
c1ccc2c(c1)CSC(=NCc1ccncc1)N2	-0.9	-0.43
CCOc1ccc(/C=C(\C#N)C(N)=C(C#N)C#N)cc1	-2.5	.
Cc1ccc(CSc2nc(C(=O)O)ccc2C#N)cc1	0.1	-0.085
Cc1[nH]c(=O)c(C#N)cc1-c1csc(-c2ccccc2)n1	0.7	0.76
COCC(C)N=C1NN=C(c2c[nH]c3ccccc23)CS1 (stereo not given)	-0.25	.
O=C(NCCN1CCOCC1)c1ccc(I)cc1	-1	-0.29
CC(C(=O)OCc1nnc(-c2ccccc2)o1)N1C(=O)c2ccccc2C1=O (stereo not given)	-0.2	.

(more compounds)
SMILES	AID504770	CapD inh
CCCS(=O)(=O)N1CCCC(C(=O)NC)C1 (stereo not given)	-0.5	0.56
CCOc1ccc(/C=C/C(=O)N(C)Cc2ccccc2)cc1OC	0.55	.
COc1ccc(NC2=NCCC2)cc1	2&1.1	-0.08
CCN(CC)c1ccc(NC(=O)CNc2ccc(F)cc2F)cc1	0.25	.
O=C(c1ccco1)N1CCN(C(=O)C(c2ccccc2)N2Cc3ccccc3C2=O)CC1 (stereo not given)	-0.65	0.1
CCN(CC)c1ccc(C(=O)OCc2c(C)noc2C)cc1	-0.15	.
O=C1NC(=S)N/C1=C\c1c(F)cccc1Cl	.	-4.1*
CCOC(=O)c1sc(C)c2c(=O)[nH]nnc12	-0.35	-0.34
O=C(CSc1nc2c(sc(=S)n2-c2ccccc2)c(=O)n1Cc1ccco1)NC1CCCCC1	0.2	-0.94
CNC(=S)NN=C1CCCCC1	.	-1.1
O=C(OCC(=O)N1CCCCC1)c1ccccc1SCC(=O)N1CCCCC1	-0.1	.
N#Cc1ccc(N2CCN(S(=O)(=O)c3cccc(Cl)c3Cl)CC2)cc1	.	0.095
CSc1sc(SC)c(COC(C)=O)c1COC(C)=O	-0.55	-0.16
CCCCCCOc1ccc2c(c1)C(=O)c1cc(OCCCCCC)ccc1-2	.	0.18
Cc1ccc2c(c1)c1c3n2CC(O)CN=C3CCC1 (stereo not given)	-0.35	-0.6
Cc1nnc(SCC(=O)N(C)C2CCCCC2)s1	0	-0.24
Cn1cnnc1SCc1cc(=O)c(OCc2cccc(F)c2)co1	-0.1	.
N#CC(C(=O)COc1ccccc1)c1ccccc1 (stereo not given)	-1.4	-0.12
CC(C)CNC(=O)Cn1nc(C(F)(F)F)c2c1CCCC2	-0.95	0.25
Cc1ccc(CNC(=O)CCSCc2ccc(C)cc2)cc1	0.15	69
COc1cc(/C=C(\C#N)c2nnc3n2CCCCC3)ccc1OC(C)=O	.	-0.35
CCn1c2ccccc2c2cc(CN3CCN(C(=O)C(c4ccccc4)c4ccccc4)CC3)ccc21	.	3.6
NC(=O)COC(=O)c1ccccc1OCc1ccc(F)cc1	-0.65	.
COc1ccc(Br)cc1C(=O)Nc1cc(-c2nc3ncccc3o2)ccc1C	.	0.17
CCn1c(=O)n(CC)c2cc(S(=O)(=O)N3CCOCC3)ccc21	1.6	-0.16
Going on with the list:
SMILES	AID504770	CapD inh
COc1ccc(C2C(C#N)=C(N)Oc3n[nH]c(-c4ccc([N+](=O)[O-])cc4)c32)cc1OC (stereo not given)	.	-1.5
O=S1(=O)CC/C(=N\Nc2cc(Cl)ccc2Cl)c2ccsc21	.	-0.48
CC(C)=Cc1ccc(O)cc1	-0.7	0.97
CCCCOC(=O)c1ccccc1Nc1ccn2c(=O)c3ccccc3nc2n1	-0.15	.
Cc1nc2ccccc2n1CC(=O)N1CC(=O)Nc2ccccc21	-1	-0.01
COc1ccc(N2C(N)=C(C#N)C(c3ccc4c(c3)OCO4)C3=C2CC(C)(C)CC3=O)c(OC)c1 (stereo not given)	.	1
C/C(N)=N/S(=O)(=O)c1cc(C(F)(F)F)cc(C(F)(F)F)c1	-0.2	0.1
COCC(=O)Nc1c(C(=O)Nc2ccc(C)c(C)c2)oc2ccccc12	-0.3	.
CCc1ccc(NC(=O)c2nc(S(C)(=O)=O)ncc2N(Cc2ccc(C)cc2)Cc2ccco2)cc1	0.55	-1.1
CCOC(=O)C1=CN(Cc2ccc(F)cc2)C=C(C(=O)OCC)C1c1ccc(OCC)c(OC)c1	.	52
CCC(=O)N(CCC(c1ccco1)c1ccccc1OC)Cc1cccs1 (stereo not given)	3	0.12
O=C(CSc1nc2ccccc2c(=O)n1CC1CCCO1)c1ccc(Br)cc1 (stereo not given)	.	0.27
COc1ccc(Sc2nc(SC)nc(-c3ccccc3)c2C#N)cc1	.	0
O=C(Nc1ccc(Cl)c(Cl)c1)NC1CCCCC1	-0.15	-0.18
Clc1ccc(-c2cnc3ccccc3n2)cc1Cl	.	0.31
Cc1oc(-c2ccccc2)nc1CS(=O)CC(=O)N1CCc2ccccc21 (stereo not given)	-0.75	-0.27
COc1ccccc1C1CC(=O)C2=C(C1)NC(C)=C(C(=O)OC1CCCC1)C2c1cc(OC)c(OC)c(OC)c1 (stereo not given)	.	20
CC(NC(=O)c1ccccc1)c1nc2ccccc2n1C(C)C (stereo not given)	0.35	.
C(=Nc1cccc2ccccc12)c1c[nH]c2ccccc12	-0.35	7
COc1cc2c(cc1OC)C(c1ccccc1)N(C(=O)CSc1nc3ccccc3o1)CC2 (stereo not given)	-0.4	0.11
CS(=O)(=O)c1ccc(C(=O)COC(=O)c2ccccc2)cc1	.	0.57
CCNC(=S)N1CC2CC(C1)c1cccc(=O)n1C2 (stereo not given)	.	-0.14
O=S(=O)(c1cccc2nsnc12)N1CCC(Cc2ccccc2)CC1	.	-0.3
COC(=O)c1cc([N+](=O)[O-])ccc1Sc1ccc(Cl)cc1	.	-1.2
Cc1cc(COC(=O)c2ccc(C#N)cc2)no1	-0.35	.
(continued)
SMILES	AID504770	CapD inh
S=C(N=P(c1ccccc1)(N1CCOCC1)N1CCOCC1)N1CCN(c2ccccc2)CC1	-0.65	.
O=C(CSCc1nc2ccccc2[nH]1)N1CCOCC1	-0.2	-0.17
CC1CCN(c2ccc([N+](=O)[O-])c(Oc3nc4c(Cl)cc(Cl)cc4s3)c2)CC1	.	-0.49
Cc1nc(Cc2nnc(SCC(=O)NCC34CC5CC(CC(C5)C3)C4)o2)cs1	-2.8*	.
COc1nc(OC)nc(-n2cnc(NC(=O)Nc3cccc(Cl)c3)n2)n1	-2.2	0.055
C=CCN1C(=O)c2ccc(C(=O)OCc3ncc(-c4ccccc4)o3)cc2C1=O	-0.4	.
COC(=O)COc1c(-c2nc(OC)cc(OC)n2)sc2ccccc12	.	0.075
O=S(=O)(NCCc1cn2ccccc2n1)c1ccc2c(c1)CCCC2	-0.45	-0.075
CCC(C)NC(=O)C1CCCN(S(=O)(=O)N2CCC(C)CC2)C1 (stereo not given)	-0.75	0.35
CCN(CC)C(=O)c1ccc(Oc2ccc(C(=O)N(CC)CC)cc2)cc1	-0.4	i
CCOC(=O)c1cc(CC)sc1NC(=S)Nc1ccccc1C(F)(F)F	-0.6	-0.64
CC1(C)CC(N2C(=O)OC3(CCCCC3)C2(C)O)CC(C)(C)N1 (stereo not given)	.	-0.22
CCN(C(=O)c1cnc2ccccn2c1=O)c1ccccc1C	-0.2	-0.18
O=C(Oc1ccccc1NC1=NS(=O)(=O)c2ccccc21)c1cccc([N+](=O)[O-])c1	.	0.57
Cc1cc(-c2ccccc2)[n+]2nc(N)sc2n1	-0.85	14
O=C(Nc1ccc(Br)cc1)c1cc(-c2ccc(F)cc2)on1	-1.2	-0.53
CCCCOc1ccc(C2(C)NC(=O)N(C)C2=O)cc1 (stereo not given)	0.45	.
Cc1ccc(SC(C)C(=O)Nn2cnnc2)cc1 (stereo not given)	1.7	-0.32
CSc1ccccc1NC(=O)CN1CCC(C)CC1	-1	.
Cc1cc(Cl)nc(Cl)c1C(=O)NC(=O)NC(C)(C)C	-1.1	-0.17
COc1ccc(CCN2COc3c(cc4c(-c5ccccc5)cc(=O)oc4c3C)C2)cc1	-0.4	-0.01
CCOC(=O)C1CCN(C(=O)CCCCn2c(=O)[nH]c3ccccc3c2=O)CC1	-1.1	2.3
CCn1c2ccccc2c2cc(CN3CCN(S(=O)(=O)c4ccc(OC)c(OC)c4)CC3)ccc21	.	21
CC1CN(C2CCCCC2)CCC1=O (stereo not given)	0.15	0.52
CCN(CC)CCCNc1nnc(Cc2cccnc2)c2ccccc12	-0.15	-1.9
The list continues:
SMILES	AID504770	CapD inh
O=S(=O)(Oc1cccc(N2CCOCC2)c1)c1ccc(Cl)cc1	0.5	0.21
O=C(NCc1ccc(Cl)cc1)C1CCC(CNS(=O)(=O)c2ccc(Cl)cc2)CC1 (stereo not given)	1.1	0.35
COC(=O)c1cnc(NC2CCCCC2)c2ccccc12	-0.7	68
CN=C1NC(=O)CC(C(=O)Nc2ccc3ccccc3c2)S1 (stereo not given)	1.1	-0.06
O=S1(=O)N=C2CCCCCN2C(c2ccccc2OCc2ccccc2)N1 (stereo not given)	0.2	.
O=C(NCC1CCCO1)c1cccc2c1OCCCO2 (stereo not given)	-0.25	0.4
CC1Oc2ccccc2C=C1/C=C(\NC(=O)c1ccccc1)C(=O)N1CCOCC1 (stereo not given)	-0.25	1.7
Clc1ccc2c(c1)NC(c1ccccc1Cl)O2 (stereo not given)	.	-0.15
COc1ccccc1Oc1ccc(N/C=C/C(=O)c2ccc(C)o2)cc1	-0.45	-3.2
CCCNC(=O)Nc1ccc(-n2nc(C(F)(F)F)cc2C(F)(F)F)cc1	.	-0.26
CCN1C(=O)/C(=C/C=C/c2ccco2)C(=O)NC1=S	-0.7	-0.79
CCOC=C(C#N)C#N	0.95	.
COC(=O)c1ccc(CNC(=O)CSC2=NCCS2)cc1	0.2	.
COc1cccc(SCC(=O)NN=C(c2ccccc2)c2ccccc2)c1	.	0.01
CCN(CC)c1ccc(/C=N/NC(=O)c2ccc(OC)c(OC)c2)c(O)c1	.	4
Cc1cccc(NC(=S)N2CCn3cccc3C2c2cccs2)c1 (stereo not given)	0.95	0.095
O=c1[nH]c(=O)n(CCCO)c(O)c1N=Nc1c(Cl)cccc1Cl	0.35	-2.2
COCC(=O)Nc1ccc(S(=O)(=O)NC(C)(C)C)cc1	0	0.9
CC1=NOC(=O)/C1=C\c1ccccc1	-1.4	0.035
Cc1cc(C)c(-n2nnnc2SCC(=O)Nc2nn(-c3ccccc3)nc2C(N)=O)c(C)c1	0.3	17
COc1ccc(N2CCN(C(=O)OCCc3ccc(C#N)cc3)CC2C)cc1 (stereo not given)	.	0.82

Of the compounds above, 3 contain a tert-butyl group:
SMILES	AID504770	CapD inh
CC(=O)N1CCC(Nc2ccc3[nH]c(C(C)(C)C)cc3c2)CC1	.	3.2
Cc1cc(Cl)nc(Cl)c1C(=O)NC(=O)NC(C)(C)C	-1.1	-0.17
COCC(=O)Nc1ccc(S(=O)(=O)NC(C)(C)C)cc1	0	0.9
